26S disassembly – inhibitors of ATP-driven 26S proteasome dissociation, primary screen, biochemical, bead-based flow cytometry, GFP-tagged proteasome; anti-FLAG beads, GFP-proteasome disassembly; inhibition of disassembly, % (no concentration beside the values); 24,000 tested, 0.2% active; AID 751, 2007;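 active = above 40%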;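 note: plate controls were ATP control with full disassembly for no effect and ATP-gamma-S intact proteasomes for full effect; higher percent means more bead fluorescence retained so stronger block of disassembly; stock transfer was 100 nL into about 10 µL; wells with too few beads may also be inconclusive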
VCAM-1 rise – enhancers of VCAM-1 display on endothelial cells, cell-based, plate reader, pooled HUVEC, TNFa stimulus (AID 455); augmentation, % at 5 µM; HUVEC TNFa-induced VCAM-1 immunofluorescence, plate reader; numbers were filed only for top-ranked candidate wells; 10,000 tested, 0.2% active;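 active = a compound raising TNF-alpha-driven VCAM-1 surface staining, with its hit status upheld on visual or statistical review; inactive = the rest, including hits rejected on review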;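 note: 0% = TNFa with vehicle and 100% = strongest image-checked hit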
* marks the source's active call; other numbers are inactive results; i = inactive; . = no result given.

Molecule,26S disassembly,VCAM-1 rise
O=C(CCNC(=O)Cn1ccc2ccccc2c1=O)NCCN1CCc2ccccc2C1,-0.6,i
Cn1cc(Cl)c(C(=O)NC2CCCC2)n1,2.0,i
COc1ccccc1NC(=O)CC(NCc1ccccc1)C(=O)O (stereo unspecified),0.0,i
COc1cccc(C2=NOC(C(=O)NCc3ccccn3)C2)c1 (stereo unspecified),0.9,.
COc1cc(C2=NOC(C(=O)NCc3ccco3)C2)cc(OC)c1OC (stereo unspecified),1.0,.
Cc1ccc(S(=O)(=O)c2c(C)nn(C(C)(C)C)c2OC(=O)c2cccs2)cc1,-0.8,.
CCOC(=O)Cc1c(C)c2c(O)cc(O)cc2oc1=O,0.5,i
Cn1c(=O)[nH]c(=O)c2c1nc(CN1CCN(c3ccc(F)cc3)CC1)n2CCc1ccccc1,0.0,.
CC(=O)Nc1ccc(S(=O)(=O)n2nc(C)cc2C)cc1,1.1,i
CCOC(=O)N1CCC(NC(=O)CCC(=O)N2CCOc3ccc(C)cc32)CC1,-1.6,.
Cn1c(=O)cc(OCCCC(=O)NCCN2CCN(c3ccccc3F)CC2)c2ccccc21,-1.2,.
CCOC(=O)c1c(C)[nH]c(C(=O)COC(=O)c2ccc(F)c(S(=O)(=O)N3CCOCC3)c2)c1C,-0.4,i
C=CCSc1nnc(-c2ccccc2NC(C)=O)c(=O)[nH]1,-1.3,i
Cc1ccc(S(=O)(=O)N2CCN(C(=O)CSc3nnnn3C)C2)cc1,0.6,i
Cn1nc(-c2ccc(Cl)cc2)c2cc(C(=O)N3CCN(c4ccccc4)CC3)sc21,0.2,.
CCc1ccc(NC(=O)Nc2cccs2)cc1,0.3,.
CCN(CC)CCCNC(=O)Cn1cc2c(n1)CCC(C)C2 (stereo unspecified),2.1,.
COc1cc(SC)ccc1C(=O)Nc1ccon1,-0.7,i
CCNC(=O)c1ccccc1NC(=O)c1cccc(S(=O)(=O)N2CCC(C)CC2)c1,-0.5,.
Cc1cc(-n2c(SCC(=O)NCc3cccs3)nc3n[nH]c(C)c3c2=N)ccc1Cl,-2.6,.
COc1ccccc1-c1cc(N)n[nH]1,-0.8,.
COc1ccc(-n2nc3c(c2NC(=O)C2CC2)CS(=O)C3)cc1 (stereo unspecified),-1.8,.
CCOc1ccc2oc(-c3ccccc3)c(C(=O)N3CCN(CCO)CC3)c2c1,0.8,i
O=C(NCc1cccnc1)c1ccc(=O)oc1,-1.7,i
CCCS(=O)(=O)NCc1ccc2c(c1)cc(C)n2C,1.3,.
CS(=O)(=O)N1CCC(c2noc(-c3ccc(C(F)(F)F)cc3)n2)CC1,-0.7,.
O=C(Cn1ccc2ccccc2c1=O)N1CCN(Cc2ccc3c(c2)OCO3)CC1,-1.9,.
CC12CCC(C(=O)O)(c3nc(C#N)c(C#N)nc31)C2(C)C (stereo unspecified),-1.2,i
COc1cccc(NC(=O)CSc2nccn2-c2cccc(OC)c2)c1,-0.4,.
CCOC(=O)c1[nH]c2ccc(OC)cc2c1NC(=O)CCN1CCC(C)CC1,-1.5,i
Nc1nc(SCCOc2ccccc2)n[nH]1,1.4,i
O=C(CCNS(=O)(=O)c1ccc(Br)s1)N1CCCCC1,-0.5,i
O=C(O)[C@@H]1CCCN1c1ncnc2sc3c(c12)CCC3,0.6,i
O=S(=O)(c1cc(Cl)ccc1Cl)N1CCN(Cc2ccc3c(c2)OCO3)CC1,-0.7,.
CS(=O)(=O)N1CCCC(C(=O)NC2CCCCCCC2)C1 (stereo unspecified),-1.0,.
C=C(C)COc1ccc(-c2nc(N)ncc2Oc2ccccc2OCC)c(O)c1,1.9,i
CCOC(=O)CSc1cc(=O)n(C)c2cc(Cl)ccc12,-0.2,.
COc1cc2[nH]c(=O)n(CCC(=O)NC3CCN(Cc4ccccc4)CC3)c(=O)c2cc1OC,0.1,.
Cc1ccc(CCNC(=O)c2nnn(-c3cc(C)cc(C)c3)c2N)cc1,0.4,.
CN1CCN(Cc2c(O)ccc3c(=O)c(Oc4ccccc4Cl)c(C(F)(F)F)oc23)CC1,-3.0,.
CCCCN=C(N)/C(C(=O)OCC)=C(\O)c1ccc(OC)cc1,1.3,.
COc1ccc(S(=O)(=O)Cc2ccc(C(=O)NCCCN(C)c3ccccc3)o2)cc1,3.1,.
Cc1nc2ccc(S(=O)(=O)NCC(=O)N3CCCCC3)cc2s1,0.6,i
O=C(NCCN1CCOCC1)c1ccc(CS(=O)(=O)c2ccc(Br)cc2)o1,-1.3,.
CCN(CC(=O)Nc1ccc2c(c1)OCCO2)Cc1cc(=O)oc2cc(C)c(C)cc12,-1.7,i
CCC(=O)Nc1cc(C)c(NC(=O)C23CC4CC(CC(C4)C2)C3)cn1,0.4,i
CCOC(=O)c1c(C)c(C(=O)NCCCN2CCCC2=O)c(C)n1CC,0.2,.
COc1cccc(-c2cc(C(=O)Nc3cnn(Cc4ccc(F)cc4)c3)no2)c1,-0.9,.
COc1cc(C2N=C(c3ccccc3)NO2)cc(Br)c1O (stereo unspecified),-1.2,i
CSCC[C@@H](C(=O)Nc1ccc2c(c1)OCCO2)N1Cc2ccccc2C1=O,1.0,.
Cc1ccc2oc(=O)c3cnn(CC(=O)N4CCN(c5ccccn5)CC4)c3c2c1,-0.3,.
CCOc1ccc(/C(O)=C2/C(=O)C(=O)N(Cc3cccnc3)C2c2ccc(N(C)C)cc2)c(C)c1 (stereo unspecified),-1.7,.
CC(=O)N1CCCc2cc(S(=O)(=O)N(C)CCC#N)ccc21,1.2,.
COc1ccc2nc(/N=C\N(C)C)sc2c1,0.6,.
COCCNC(=O)c1ccc(CS(=O)(=O)c2ccc(C)cc2)o1,-0.7,.
CN(C)c1ccc(C2C3C(=O)NC(=O)C3ON2c2ccc(Cl)cc2)cc1 (stereo unspecified),0.3,.
O=C1CC2(CCCCC2)Oc2ccc(O)cc21,0.7,.
Cc1cc(C)n(-c2nncn2/N=C/c2ccccc2F)n1,0.6,.
COc1cccc2sc(Nc3nnc(-c4cccs4)o3)nc12,-0.8,.
CC1CN(C(=O)CSc2nnc(-c3ccc(Cl)cc3)n2C)CC(C)O1 (stereo unspecified),-3.9,i

New compounds follow.
Molecule,26S disassembly,VCAM-1 rise
O=C(NCc1ccc(Cl)cc1)c1noc2c1CCCCC2,0.7,.
COC(=O)c1cc(Br)ccc1OC(=O)c1cccnc1,-4.0,.
COc1ccc(-c2noc(CCC(=O)Nc3cc(OC)ccc3OC)n2)cc1,0.3,.
CC(C(=O)NCC1CCCO1)n1cccc1C(=O)c1ccccc1 (stereo unspecified),-0.8,.
COc1cc(OC)cc(-c2cc3nc(C)c(CCC(=O)O)c(C)n3n2)c1,-0.6,.
CCS(=O)(=O)N1CCCC(C(=O)NC2CCCCC2)C1 (stereo unspecified),-0.5,.
Clc1ccc(C2=Nn3c(nnc3-c3cccnc3)SC2)s1,0.1,.
COc1cc(C2N(c3cc(C)on3)C(=O)C3CCCN32)cc(OC)c1OC (stereo unspecified),-0.6,.
CCCN(CCC)S(=O)(=O)c1ccc(C(=O)O)cc1,0.5,i
O=C(c1cc(-c2ccc(Cl)c(Cl)c2)on1)N1CCN(c2ccccc2)CC1,0.5,.
Fc1cc(Br)ccc1Nc1nc2ccccc2n2nnnc12,4.3,.
CCOC(=O)n1c(SCC(=O)N(CC)CC)nc2ccccc21,0.8,i
CCC1c2ccc(C)n2CCN1C(=O)Nc1ccccc1C(=O)OC (stereo unspecified),0.1,.
CCOC(=O)N1CCC(N2Cc3cccc(C(=O)NCc4ccc(C)cc4)c3C2=O)CC1,2.2,.
Clc1ccc(Cc2nnc(-c3ccccc3Br)o2)cc1,-0.8,.
CCC(CO)Nc1ncnc2c1cnn2-c1ccc(Cl)cc1 (stereo unspecified),0.0,i
CCCCNC(=O)CSc1nc2ccccc2c(=O)n1C1CCCC1,-0.1,.
OCCNc1ncnc2c1c(-c1ccccc1)c(-c1ccccc1)n2Cc1ccco1,1.2,i
Cc1cc(=O)n2nc(N3CCC(C(=O)NCc4cccnc4)CC3)sc2n1,-13,.
CCOc1ccccc1OCC(=O)Nc1nnc(COC)s1,0.7,i
CC(=O)c1c(N2CCCCC2)nc(=O)n(-c2ccccc2)c1C,1.6,.
CCN1CCN(c2ncc(C(=O)Nc3cc(Cl)c(OC)cc3OC)c3ccccc23)CC1,1.6,.
Cc1ccc2cccc(SCC(=O)N3CCOCC3)c2n1,-0.7,i
Cn1c(=O)c2ccccc2n(Cc2ccccc2F)c1=O,3.5,i
Cc1cc(C)c2cc(CN(CC3CCCO3)C(=O)NC3CCCCC3)c(=O)[nH]c2c1 (stereo unspecified),0.2,i
CCOC(=O)N1CCC(NC(=O)CN2C(=O)CCSc3ccccc32)CC1,-0.3,i
COc1cc(C2CC(=O)NC3=C2C(=O)CC(C)(C)C3)ccc1O (stereo unspecified),-0.1,i
Brc1ccc(C2=Nn3c(nnc3-c3cccnc3)SC2)s1,0.4,.
O=P(O)(O)c1ccccc1OCCCCCOc1ccccc1P(=O)(O)O,0.9,.
CCCCCC(C)n1[nH]c(=O)c2c(C)cc(C)nc21 (stereo unspecified),-0.5,.

Whole records as entered above. Order of screens: 26S disassembly, VCAM-1 rise
CSCC[C@@H](C(=O)Nc1ccc2c(c1)OCCO2)N1Cc2ccccc2C1=O is listed as 1.0, .
Cc1cc(C)c2cc(CN(CC3CCCO3)C(=O)NC3CCCCC3)c(=O)[nH]c2c1 (stereo unspecified) is listed as 0.2, i
O=P(O)(O)c1ccccc1OCCCCCOc1ccccc1P(=O)(O)O is listed as 0.9, .

Carrying on.
Molecule,26S disassembly,VCAM-1 rise
COCCCn1c(=N)c(C(=O)NCC2CCCO2)cc2c(=O)n3cccc(C)c3nc21 (stereo unspecified),3.2,i
O=C(CCCn1c(=O)c2sccc2n(Cc2ccc(F)cc2)c1=O)NCc1ccco1,1.4,i
CCOC(=O)c1c[nH]c2c3c(ccc2c1=O)CCCC3,0.7,.
CCOC(=O)N1CCC(Nc2c(N3CCN(c4cccc(C(F)(F)F)c4)CC3)c(=O)c2=O)CC1,-1.8,.
COc1cc(OC)c(NC(=O)CCc2nc(-c3cccs3)no2)cc1Cl,-0.5,.
CCn1c(=O)n(CC(=O)N2CCN(c3ccccc3F)CC2)c(=O)c2ccccc21,-1.0,.
COc1ccc(CNC(=O)c2noc3c2CCCCC3)cc1,-1.2,.
CC(=O)Nc1ccc(S(=O)(=O)NCC2CCC(C(=O)N3CCN(c4ccccn4)CC3)CC2)cc1 (stereo unspecified),0.9,.
CCN=C(Nc1cccc(F)c1)SC1CC(=O)N(c2ccc(OC)cc2)C1=O (stereo unspecified),2.3,.
COc1cccc(OCCOCCN(C)CCO)c1,-0.5,i
O=C(O)CCc1ccc(-c2cccs2)n1NC(=O)c1ccccc1Br,1.9,i
O=C(CN1CCOCC1)N1CCCc2c1c(=O)oc1ccc(OCc3ccccc3)cc21,3.6,i
COCCN1C(=O)c2ccccc2C(C(=O)NCCCN2CCCC2=O)C1c1c[nH]c2ccccc12 (stereo unspecified),1.4,.
CCOc1ccc(NC(=O)c2ccccc2OC)cc1,1.3,.
Cc1ccc(NC(=O)C2CCN(S(=O)(=O)c3c(C)n[nH]c3C)CC2)nc1,1.0,.
COc1ccc(-c2nnc(NC(=O)c3ccc(S(=O)(=O)N4CCCc5ccccc54)cc3)o2)cc1,9.5,.
CC1CCCN(C(C(=O)Nc2ccc3c(c2)OCCO3)c2ccccc2)C1 (stereo unspecified),-1.2,.
CCOC(=O)N1CCN(C(=O)CSCc2nc(-c3ccccc3C)oc2C)CC1,1.3,.
COc1ccc(Cl)c(NC(=O)NCCN2CCN(c3ccccc3)CC2)c1,-3.7,i
Cc1ccc(-c2nn3c(C)nnc3s2)cc1NC(=O)C(C)C,0.8,.
COc1ccc(N(CC(=O)Nc2cc(C(=O)O)ccc2C)S(=O)(=O)c2c(C)noc2C)cc1,1.5,.
COc1cccc(CNC(=O)Cn2cccc2)c1,0.6,.
O=C(Nc1c(C(=O)NCc2ccco2)cnn1-c1ccccc1)c1ccc(F)cc1,-1.3,i
O=C(CN1C(=O)COc2ccccc21)NCCCN1CCc2ccccc2C1,-0.8,i
O=C(NCCN1C(=O)C2C3C=CC(C3)C2C1=O)NCc1ccccc1 (stereo unspecified),-0.1,.
CC1CCc2cc(F)cc3c(O)c(C(=O)Nc4cnccn4)c(=O)n1c23 (stereo unspecified),-1.1,i
O=C(NCCN1CCN(c2ccccc2)CC1)c1ccc(NC(=O)C2CCCO2)cc1 (stereo unspecified),0.8,i
Cc1ccc2cc3cc(C(=O)N4CCCCC4C)oc3nc2c1 (stereo unspecified),0.3,.
O=C(NCCC1=CCCCC1)C1CC(=O)N(C2CCCCC2)C1 (stereo unspecified),-0.7,.
COC(=O)c1cc2c(s1)CS(=O)C2 (stereo unspecified),-1.2,.
COc1ccc(CCNC(=O)C2CCCN(C(=O)N(C)C)C2)c(OC)c1 (stereo unspecified),0.1,.
O=C(CCSc1nccn1Cc1ccccc1)N1CCOCC1,0.0,i
CCOC(=O)N1CCN(C(=O)c2ccc3c(=O)n(Cc4ccc(OC)cc4)c(=S)[nH]c3c2)CC1,0.2,i

Bioassay records: PubChem, several laboratories

A portion of the library. The share of hits here may be higher or lower than overall.
